Source: PubChem BioAssay (National Center for Advancing Translational Sciences (NCATS))
SARS PLpro yeast: SARS-CoV PLP inhibition in yeast | hit rate 0.19% among 330,000 | Potency, µM (doses to about 32.9 µM), inactives show at the top dose activity, positive = growth rescue | S. cerevisiae expressing SARS-CoV PLpro, growth rescue; control for the full effect not named in the record; note: 0% is about no effect; nearly all actives have a fitted effect of over 55% in size; growth read by luminescence after 48 h
MARV entry inh: blocks Marburg virus binding to or entry into cells | Potency, µM (highest dose often 37.8 µM), for the others: at the top dose activity change, negative = inhibition, actives largely listed as inhibitors | hit rate 1.8% among 300,000 | AID 540276 | Marburg virus pseudotyped entry inhibition, cell reporter; control for the full effect not named in the record; about a third of the inactives were read at about 46 µM; active = well fitted inhibition curve with a large enough effect; inconclusive = small, poorly fitted or top-dose-only effect, or effect the other way; inactive = flat fitted curve, though single readings scatter; tested in HEK293 cells; about a fifth of its hits are not listed in these tables; note: % is set by controls: 0 for no effect and ±100 for the full control effect; luciferase read-out
RE007 growth inh: less growth of the S. pombe RE007 Vpr strain | S. pombe RE007 Vpr strain, BacTiter-Glo ATP luminescence, 24 h; control for the full effect not named in the record | hit rate 0.21% among 360,000 | AID 651644 | Potency, µM (doses to about 92.2 µM), for inactives: top-dose activity change, negative = less growth; active = well fitted falling curve with a large enough effect; inconclusive = small, poorly fitted or top-dose-only effect; inactive = no such curve, though single readings can be large or run the other way;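 note: % is set by controls: 0 for no effect and ±100 for the full control effect; nearly all actives have a fitted effect of over 50% in size; the assay follows cell death caused by Vpr and the record does not say whether a fall means rescue or toxicity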
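Fission yeast strain RE007, carrying one chromosomally integrated HIV-1 vpr copy, was seeded at OD 0.01 in PMG+AL medium with 23 nL pinned compound. After 24 h at 30 °C and 99% humidity, viability was read by BacTiter-Glo luminescence.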
StopGo reporter: lowers the luciferase signal of an FMDV 2A StopGo reporter. hit rate 1.2% among 410,000. Potency, µM (doses to about 57.9 µM), for the others: at the top dose signal change, negative = less light. human cells with a luciferase reporter of 2A StopGo recoding; control for the full effect not named in the record; active = well fitted falling curve with a large enough effect; inconclusive = small, poorly fitted or top-dose-only effect; inactive = no such curve, though single readings can be large or run the other way; tested in HEK293T cells; note: % is set by controls: 0 for no effect and ±100 for the full control effect; nearly all actives have a fitted effect of over 45% in size; luciferase light after 4 h
Cruzain inh noDet: inhibitors of Trypanosoma cruzi cruzain without detergent; P25779; purified cruzain, Z-FR-AMC fluorescence, no detergent; Potency, µM, without a hit: max response, negative = inhibition, usual class: inhibitors; hit rate 2.3% among 200,000; AID 1476; active = well fitted curve in the direction sought with a large enough effect; inconclusive = small, poorly fitted or top-dose-only effect, or another doubt; inactive = no such curve, though single readings can be large; an effect the other way counts as inactive or inconclusive;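 note: plate controls were enzyme without inhibitor for no effect and buffer without enzyme for full effect; nearly all actives have a fitted effect of over 40% in size; top concentration of the series not given in the record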
Target sequence (P25779 123-467 limits assumed): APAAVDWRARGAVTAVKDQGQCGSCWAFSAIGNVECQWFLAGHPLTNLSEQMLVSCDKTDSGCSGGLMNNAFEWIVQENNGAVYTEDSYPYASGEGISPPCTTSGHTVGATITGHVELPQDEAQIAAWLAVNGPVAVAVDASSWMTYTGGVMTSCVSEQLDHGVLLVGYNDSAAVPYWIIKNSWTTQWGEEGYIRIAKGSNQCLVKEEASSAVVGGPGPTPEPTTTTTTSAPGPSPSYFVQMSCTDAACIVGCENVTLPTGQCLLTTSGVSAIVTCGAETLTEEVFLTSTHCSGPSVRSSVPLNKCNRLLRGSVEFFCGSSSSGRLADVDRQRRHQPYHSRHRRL
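Purified cruzain at 1.5 nM, pre-incubated 15 min with compound at room temperature in 100 mM sodium acetate pH 5.5, 5 mM DTT, 0.00005% Triton X-100. Reaction started with 2 uM Z-FR-AMC; AMC fluorescence increase over 60 s gives rate.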
Lassa entry inh: blocks Lassa virus binding to or entry into cells; Lassa virus pseudotype entry inhibition, cell reporter; control for the full effect not named in the record; hit rate 1.2% among 300,000; Potency, µM (top dose mostly 37.9 µM), without a hit: top-dose activity change, negative = inhibition, usual class: inhibitors; active means well fitted inhibition curve with a large enough effect; inconclusive means small, poorly fitted or top-dose-only effect, or effect the other way; inactive means flat fitted curve, though single readings scatter; tested in HEK293 cells; note: % is set by controls: 0 for no effect and ±100 for the full control effect; nearly all actives have a fitted effect of over 50% in size; luciferase read-out
NS1 function inh: inhibitors of influenza NS1 protein function; S. cerevisiae slowed by influenza A NS1, growth recovery by OD600; Potency, µM (highest dose often 46.1 µM), for inactives: at the highest dose activity, positive = more growth; hit rate 0.4% among 270,000; AID 2326; note: actives are rising curves; nearly all actives have a fitted effect of over 50% in size
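S. cerevisiae expressing influenza A NS1, grown in glucose, washed, then diluted 1:100 into pH 6.0 -URA galactose medium with 23 nl compound. Growth recovery read as OD600; NS1-free strain serves as control.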
Cruzain inh Det: blocks cruzain activity in presence of Triton detergent; Potency, µM, for inactives: max response, negative = inhibition, hits mostly inhibitors; P25779; hit rate 0.43% among 200,000; purified cruzain, Z-FR-AMC fluorescence, 0.01% Triton; active = well fitted curve in the direction sought with a large enough effect; inconclusive = small, poorly fitted or top-dose-only effect, or another doubt; inactive = no such curve, though single readings can be large; an effect the other way counts as inactive or inconclusive;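 note: plate controls were neutral wells for no effect and buffer without enzyme for full effect; nearly all actives have a fitted effect of over 40% in size; top concentration of the series not given in the record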
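Z-FR-AMC hydrolysis (2 uM substrate) by cruzain (1.5 nM) monitored kinetically at ex 360/em 450 nm after 15 min room-temperature compound exposure; 0.01% Triton X-100, pH 5.5, 5 mM DTT.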
Starred values were filed as active, the others as inactive; & = joins results of further samples; [ ] = dose if it differs, or a comment. Unless noted, calls come from the whole dose curve; as a rule, active means well fitted rising curve with a large enough effect; inconclusive means small, poorly fitted or top-dose-only effect; inactive means no such curve, though single readings can be large or run the other way. Potency is the fitted concentration of half-maximal effect.

CCN(CC)c1ccc(/C=C/c2cccc[n+]2C)c(OC)c1 was read as SARS PLpro yeast -9%, MARV entry inh 2.8µM*, RE007 growth inh -28%, StopGo reporter inconclusive, Lassa entry inh inconclusive and NS1 function inh -36%.
For Cc1cc(C(=O)N/N=C/c2ccc(Br)o2)n[nH]1 the results were SARS PLpro yeast -3%, RE007 growth inh 11%, StopGo reporter 20% and NS1 function inh -2%.
`CC1(C)Cc2ccccc2C(/C(=N\Nc2cccc(Cl)c2)C(N)=O)=N1` gave SARS PLpro yeast -92%, MARV entry inh inconclusive, RE007 growth inh -3%, StopGo reporter inconclusive, Cruzain inh noDet -11%, Lassa entry inh inconclusive, NS1 function inh 2% and Cruzain inh Det -13%.
Fc1ccccc1NC(=S)N(CCN1CCCCC1)Cc1ccco1 was read as SARS PLpro yeast 2%, MARV entry inh -16%[46.1 µM], RE007 growth inh -9%, StopGo reporter -10% and Lassa entry inh 0%.
Screening CCCNC(=O)NC(=O)CSc1ncc(C(F)(F)F)cc1Cl returned SARS PLpro yeast 8%, MARV entry inh -18%, RE007 growth inh -9%, StopGo reporter -9%, Cruzain inh noDet -4%, Lassa entry inh -3%, NS1 function inh -2% and Cruzain inh Det 4.8%.
`COc1ccc(OC)c(C2Nc3ccccc3NC3=C2C(=O)CC(C)(C)C3)c1` (stereo not given) gave SARS PLpro yeast -6%, RE007 growth inh 8%, StopGo reporter 0% and NS1 function inh 11%.
For O=C(CCS(=O)(=O)c1cc2c(cc1Cl)NC(=O)CO2)NCc1ccccc1 the results were SARS PLpro yeast -3%, RE007 growth inh -3%, StopGo reporter 8%&-21%, Cruzain inh noDet inconclusive, Lassa entry inh -23%[46.1 µM], NS1 function inh -6% and Cruzain inh Det 4.3%.
O=C(COc1ccccc1)NCC(=O)N/N=C/c1ccc(Cl)cc1 was read as SARS PLpro yeast 1%, RE007 growth inh -1%, StopGo reporter -14% and NS1 function inh 2%.
Screening CC(=O)c1cccc(OCc2cc(C(=O)N3C[C@H]4CC[C@H]3C4)no2)c1 returned SARS PLpro yeast 0%, RE007 growth inh 5%, StopGo reporter 17% and NS1 function inh -33%.
For COc1cc(/C=C2\SC(=S)NC2=O)ccc1OS(=O)(=O)c1ccccc1 the results were SARS PLpro yeast -43%, MARV entry inh -19%, Cruzain inh noDet -9%, Lassa entry inh -1%, NS1 function inh -56% and Cruzain inh Det inconclusive.
Nc1c(C(=O)NCC2CCCO2)c2nc3ccccc3nc2n1-c1ccccc1 (stereo not given) was read as SARS PLpro yeast -6%, MARV entry inh inconclusive, RE007 growth inh 8%, StopGo reporter inconclusive, Cruzain inh noDet inconclusive, Lassa entry inh inconclusive, NS1 function inh -15% and Cruzain inh Det -15%.
Cc1nc(-c2ccc(F)cc2)sc1CCNC(=O)c1ccc(C(C)(C)C)cc1 was read as StopGo reporter -10%, Cruzain inh noDet 10%, Lassa entry inh inconclusive and Cruzain inh Det -10%.
`CC(C)C(NC(=O)c1ccco1)C(=O)OCC(=O)Nc1ccc(C(N)=O)cc1` (stereo not given) gave SARS PLpro yeast -1%, MARV entry inh inconclusive, RE007 growth inh 21%, StopGo reporter -15% and Lassa entry inh -1%.
Screening O=C(COC(=O)c1c[nH]c(=O)[nH]c1=O)Nc1ccccc1Br returned SARS PLpro yeast 1%, RE007 growth inh -6%, StopGo reporter -11% and NS1 function inh 1%.
For O=S(=O)(Nc1ccc(F)cc1)N1CCOCC1 the results were SARS PLpro yeast 0%, MARV entry inh -10%[46.1 µM], RE007 growth inh 9%, StopGo reporter 6%, Lassa entry inh -4% and NS1 function inh inconclusive.
CCN(CC)S(=O)(=O)c1ccc(C)c(NC(=O)CSc2nc3ccccc3[nH]2)c1 was read as SARS PLpro yeast 18%, MARV entry inh inconclusive, RE007 growth inh 11%, StopGo reporter -12%, Cruzain inh noDet -13%, Lassa entry inh inconclusive, NS1 function inh -10% and Cruzain inh Det -4.7%.
For Cn1c(=O)c2sccc2n2c(CCCC(=O)Nc3ccccc3)nnc12 the results were SARS PLpro yeast 0%, RE007 growth inh -3%, StopGo reporter -15% and NS1 function inh -1%.
Cc1ccc(Cl)cc1N1CCN(C(=O)CCNS(=O)(=O)c2ccc3c(c2)CCN3C(=O)C2CC2)CC1 was read as StopGo reporter inconclusive, Cruzain inh noDet inconclusive, Lassa entry inh -2%[46.1 µM] and Cruzain inh Det -4.1%.
For Cc1ccc(-c2ccc(SCC(=O)N3CCCc4ccccc43)nn2)cc1 the results were SARS PLpro yeast -8%, MARV entry inh -10%, Cruzain inh noDet -2%, Lassa entry inh 5%, NS1 function inh 1% and Cruzain inh Det -6.0%.
COc1ccc(Cl)cc1N/C(N)=N/c1nc(CSc2ccc(C)cc2)cc(=O)[nH]1 was read as SARS PLpro yeast 20%, MARV entry inh inconclusive, RE007 growth inh 3%, StopGo reporter 5%, Cruzain inh noDet inconclusive, Lassa entry inh -8%, NS1 function inh 0% and Cruzain inh Det 0.0%.

Ordered by SMILES length (ascending): 3 of the compounds above.
For Cn1c(=O)c2sccc2n2c(CCCC(=O)Nc3ccccc3)nnc12 the results were SARS PLpro yeast 0%, RE007 growth inh -3%, StopGo reporter -15% and NS1 function inh -1%.
Screening O=C(COC(=O)c1c[nH]c(=O)[nH]c1=O)Nc1ccccc1Br returned SARS PLpro yeast 1%, RE007 growth inh -6%, StopGo reporter -11% and NS1 function inh 1%.
Cc1nc(-c2ccc(F)cc2)sc1CCNC(=O)c1ccc(C(C)(C)C)cc1 was read as StopGo reporter -10%, Cruzain inh noDet 10%, Lassa entry inh inconclusive and Cruzain inh Det -10%.

Continued.
O=C(O)c1ccccc1C(=O)Nc1ccc(S(=O)(=O)Nc2ccc(F)cc2)cc1 was read as SARS PLpro yeast 0%, RE007 growth inh -17%, StopGo reporter 9% and NS1 function inh -2%.
Screening COc1ccc(CN(C)C(=O)CCN(c2ccccc2)S(=O)(=O)c2ccc(C)cc2)c(OC)c1 returned SARS PLpro yeast 1%, MARV entry inh inconclusive, RE007 growth inh -1%, StopGo reporter -13% and Lassa entry inh inconclusive.
For N=c1c2c(-c3ccccc3)c(-c3ccccc3)n(Cc3ccco3)c2ncn1CCCn1ccnc1 the results were SARS PLpro yeast -19%, MARV entry inh 3.5µM*, StopGo reporter inconclusive, Cruzain inh noDet -10%, Lassa entry inh 11µM*, NS1 function inh -2% and Cruzain inh Det -5.0%.
`CCOC(=O)c1c(C)n(CCOc2ccccc2)c2ccc(O)cc12` gave SARS PLpro yeast 0%, MARV entry inh 1%, RE007 growth inh 9%, StopGo reporter -18%, Lassa entry inh -11% and NS1 function inh -6%.
Screening CN(CC(=O)Nc1c(Cl)cccc1Cl)C(=O)Cc1ccc(S(=O)(=O)N2CCOCC2)s1 returned SARS PLpro yeast 6%, MARV entry inh 15%, RE007 growth inh -28%, StopGo reporter -15%, Lassa entry inh 4% and NS1 function inh 0%.
For Cc1nc2ccc(Cl)cc2nc1C the results were SARS PLpro yeast 2%, MARV entry inh 0%, RE007 growth inh 5%, StopGo reporter -6%, Lassa entry inh -1% and NS1 function inh 8%.
For O=C(CSc1nnc(-c2ccncc2)n1-c1ccccc1)Nc1ccc(C(=O)O)cc1 the results were SARS PLpro yeast -2%, MARV entry inh 16%[46.1 µM], RE007 growth inh 3%, StopGo reporter -13% and Lassa entry inh -16%[46.1 µM].
For C[C@H](NC(=O)[C@@H]1CSC2c3ccccc3C(=O)N21)C(=O)NCc1c(F)cccc1Cl (stereo not given in full) the results were SARS PLpro yeast 0%, RE007 growth inh 0%, StopGo reporter -5% and NS1 function inh -7%.
O=C1C(=NO)CCc2ccccc21 was read as MARV entry inh inconclusive, RE007 growth inh -7%, StopGo reporter inconclusive and Lassa entry inh inconclusive.
For CCCCOC(=O)Nc1ccc(S(=O)(=O)Nc2onc(C)c2C)cc1 the results were SARS PLpro yeast -1%, RE007 growth inh 8%, StopGo reporter 3% and NS1 function inh -37%.
For Cc1cc(CNC(=O)Cc2c(F)cccc2Cl)nn1C the results were SARS PLpro yeast 2%, MARV entry inh 3%, RE007 growth inh 9%, StopGo reporter 28%, Cruzain inh noDet -7%, Lassa entry inh -5%, NS1 function inh 2% and Cruzain inh Det 1.4%.
O=C(O)[C@H]1CCCC[C@H]1C(=O)Nc1ccc(S(=O)(=O)N2CCOCC2)cc1 was read as SARS PLpro yeast -1%, MARV entry inh 12%[46.1 µM], RE007 growth inh 5%, StopGo reporter 10% and NS1 function inh 5%.
For Cc1cccn2c(=O)c(/C=C(\C#N)C(=O)NC3CCS(=O)(=O)C3)c(Oc3ccccc3Cl)nc12 (stereo not given) the results were SARS PLpro yeast 0%, MARV entry inh inconclusive, RE007 growth inh -1%, StopGo reporter 20µM*, Lassa entry inh -11%[46.1 µM] and NS1 function inh -20%.
CCN(CC)c1ccc(/C=N/N2CCN(Cc3cccc4ccccc34)CC2)c(O)c1 was read as SARS PLpro yeast 12%, MARV entry inh -22%, RE007 growth inh -15%, StopGo reporter -2%, Cruzain inh noDet inconclusive, Lassa entry inh -4%, NS1 function inh 8% and Cruzain inh Det -2.7%.
COc1ccc(-c2nc3cc([N+](=O)[O-])ccc3o2)cc1OC was read as SARS PLpro yeast -2%, MARV entry inh -1%[46.1 µM], RE007 growth inh -17%, StopGo reporter 19%, Lassa entry inh inconclusive and NS1 function inh 1%.
`O=C(COC(=O)c1ccc(F)cc1F)NC1CC1` gave SARS PLpro yeast 1%, MARV entry inh inconclusive, RE007 growth inh 25%, StopGo reporter -14% and Lassa entry inh 0%.
Screening CC(=Nc1ccc(F)cc1)c1c(O)n(C)c(=O)[nH]c1=O returned SARS PLpro yeast 6%, MARV entry inh inconclusive, RE007 growth inh 0%, StopGo reporter -21%, Lassa entry inh 14% and NS1 function inh -14%.
Screening CN(CC(=O)Nc1ccccc1Cl)C(=O)Cn1cnc2ccccc2c1=O returned SARS PLpro yeast 0%, MARV entry inh 1%[46.1 µM], RE007 growth inh 4%, StopGo reporter -17% and Lassa entry inh -1%.
